From PubChem BioAssay
GALR2 agonist: GALR2 (human) receptor agonism | O43603 | GALR2-expressing cells, agonist activation read-out | activation, %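 (tested at 5 µM)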 | 140,000 compounds, 0.48% hits;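 active = above mean plus 3 SD of all compounds, about 5% in these data, not always enough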;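 note: 0% = vehicle buffer wells and 100% = reference agonist at full effect; tested in CHO reporter cells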
Target sequence (O43603 whole entry, looked up): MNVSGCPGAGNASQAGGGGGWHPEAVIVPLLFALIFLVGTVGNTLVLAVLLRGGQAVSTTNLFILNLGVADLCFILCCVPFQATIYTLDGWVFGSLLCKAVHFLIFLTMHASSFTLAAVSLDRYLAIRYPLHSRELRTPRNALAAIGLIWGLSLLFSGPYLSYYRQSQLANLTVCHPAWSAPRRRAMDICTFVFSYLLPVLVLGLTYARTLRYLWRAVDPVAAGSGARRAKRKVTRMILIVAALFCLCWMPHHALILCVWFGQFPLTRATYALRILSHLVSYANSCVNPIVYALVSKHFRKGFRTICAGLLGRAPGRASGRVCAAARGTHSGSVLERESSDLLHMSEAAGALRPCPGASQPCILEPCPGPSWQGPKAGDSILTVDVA
Insulin prom inh: TRM-6 insulin promoter activity inhibition; TRM-6 cells (human fetal islet line), insulin promoter-eGFP reporter, imaging; reporter expression induced with tamoxifen; inhibition, % at 2 µM; 130,000 compounds, 0.9% hits; AID 1273;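 active = inhibition above the mean plus 3 SD, with well images judged a real hit on visual review, cut at about 60% in these data, passing the limit was not always enough; inconclusive = inhibition over the cutoff but images rejected on review; inactive = inhibition not above the cutoff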
RGS16-Gao: RGS16-Galphao interaction regulator (human); bead-based flow cytometry RGS16-Galphao binding, fluorescence; actives lie on both sides; O15492+P09471; binding response (% of control), % at 10 µM; 220,000 compounds, 0.38% hits;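 active = below 25% or above 175%, edge rows of some plates excepted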;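 note: Galphao activated by GDP with aluminum fluoride before binding; 100% = wells without compound and 0% = beads without RGS; some results beyond the cut were filed as inactive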
Target sequence (O15492 whole entry, looked up): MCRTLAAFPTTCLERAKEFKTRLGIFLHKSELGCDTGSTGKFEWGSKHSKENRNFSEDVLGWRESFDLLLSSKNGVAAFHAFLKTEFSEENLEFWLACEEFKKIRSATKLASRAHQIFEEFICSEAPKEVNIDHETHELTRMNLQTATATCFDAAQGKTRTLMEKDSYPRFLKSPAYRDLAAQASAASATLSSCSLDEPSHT
Target sequence (P09471 whole entry, looked up): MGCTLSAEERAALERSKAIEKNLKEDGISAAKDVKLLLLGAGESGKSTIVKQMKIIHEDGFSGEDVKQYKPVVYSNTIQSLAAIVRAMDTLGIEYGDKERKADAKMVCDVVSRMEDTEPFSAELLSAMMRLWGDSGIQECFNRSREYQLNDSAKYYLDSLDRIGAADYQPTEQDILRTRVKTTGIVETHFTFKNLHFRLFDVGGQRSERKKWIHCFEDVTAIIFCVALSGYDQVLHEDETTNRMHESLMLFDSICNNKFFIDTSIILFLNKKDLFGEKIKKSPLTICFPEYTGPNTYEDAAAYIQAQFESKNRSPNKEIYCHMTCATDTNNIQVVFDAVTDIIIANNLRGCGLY
PKD1 kinase inh: PKD1 (human) kinase inhibition | Q15139 | PKD1 kinase fluorescence polarization assay | inhibition, %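 (about 10 µM by stock and volumes)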 | 200,000 compounds, 0.056% hits | AID 797;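 active = inhibition of 50% or more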;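 note: controls were vehicle for no effect and a reference inhibitor for full effect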
HSV replic up: HSV replication enhancement. maximum fold increase. HSV replication augmentation in cells, fold increase. 220,000 compounds, 0.005% hits;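 active = peak rise of 1.5-fold or more in the series; inconclusive = self-fluorescent or not available for retest; tested in PC3 cells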;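 note: first round at 10 µM; read as green reporter fluorescence; hits show the peak of a series up to 25 µM; 1 = signal of infected wells without compound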
Insulin prom inh cell count: further read-out of Insulin prom inh, marked with its call; normalized cell count, %; measured here: cell count, toxicity; reference of the scale not given here;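 cells exposed to compound for 48 h; stained nuclei by imaging scaled within each plate; lower means fewer cells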
HSV replic up primary fold: also measured in HSV replic up; calls as there; fold increase; compound at 10 µM; measured here: primary screen fold increase 10 uM; tested in PC3 cells;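 GFP signal in the first replicate; 1 = infected wells without compound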
The depositor's hits bear a star; i = inactive; ? = inconclusive; . = no result given.

SMILES	GALR2 agonist	Insulin prom inh	Insulin prom inh cell count	RGS16-Gao	PKD1 kinase inh	HSV replic up	HSV replic up primary fold
COc1ccccc1NC(=O)CSc1nnc(COc2ccc(Cl)cc2)n1Cc1ccco1	-0.6	-29	123	104	-3	i	0.91
CCCOC(=O)c1c(NC(=O)C2C3C=CC(C3)C2C(=O)O)sc2c1CCC(C)C2 (configuration not stated)	.	.	.	87	-1	i	0.79
CCCOc1ccc(N2C(=O)CC(NCc3cccnc3)C2=O)cc1 (configuration not stated)	.	-43	85	109	1	i	1
Clc1ccc(-c2c[n+](Cc3ccc(Cl)c(Cl)c3)c3n2CCC3)cc1	0.9	.	.	100	18	i	1
COc1ccc(-c2cc(-c3cccs3)nc(OC)c2C#N)cc1OC	-0.8	.	.	98	-5	i	0.69
COc1ccc(-n2nnc3c(SCC(=O)Nc4ccc5c(c4)OCCO5)ncnc32)cc1	-0.9	27	86	102	-15	.	.
Cc1nn(CC(=O)Nc2ccc(C(=O)N3CCCCC3)cc2)c(=O)c2ccccc12	-1.5	-170	110	111	1	i	1.2
Nc1nc(COc2ccc(Cl)cc2)cs1	.	.	.	109	-6	i	0.9
O=C(CSc1c[nH]c2ccccc12)N1CCOCC1	-0.1	-30	110	98	-11	i	1
Cc1ccc2nc(N/C(N)=N/S(=O)(=O)c3ccc([N+](=O)[O-])cc3)nc(C)c2c1	-0.3	4	98	100	-11	i	0.98

Nothing new here: 4 of the compounds above.
SMILES	GALR2 agonist	Insulin prom inh	Insulin prom inh cell count	RGS16-Gao	PKD1 kinase inh	HSV replic up	HSV replic up primary fold
CCCOc1ccc(N2C(=O)CC(NCc3cccnc3)C2=O)cc1 (configuration not stated)	.	-43	85	109	1	i	1
Clc1ccc(-c2c[n+](Cc3ccc(Cl)c(Cl)c3)c3n2CCC3)cc1	0.9	.	.	100	18	i	1
COc1ccc(-c2cc(-c3cccs3)nc(OC)c2C#N)cc1OC	-0.8	.	.	98	-5	i	0.69
COc1ccc(-n2nnc3c(SCC(=O)Nc4ccc5c(c4)OCCO5)ncnc32)cc1	-0.9	27	86	102	-15	.	.

The list goes on.
SMILES	GALR2 agonist	Insulin prom inh	Insulin prom inh cell count	RGS16-Gao	PKD1 kinase inh	HSV replic up	HSV replic up primary fold
O=C(NCC1CC1)NC(=O)c1c(F)cccc1Cl	.	.	.	9.3*	.	i	0.86
CCOCCCNC(=O)c1c(N)n(-c2ccc(S(N)(=O)=O)cc2)c2nc3ccccc3nc12	-2.9	-47	90	97	-2	i	1
O=C(Oc1ccc2ccc(OC(=O)N3CCCCCC3)cc2c1)N1CCCCCC1	-2.2	7	97	82	-14	i	0.84
FC(F)(F)c1cc(-c2ccco2)nc(NCCc2ccccc2)n1	-1.5	8	107	106	41	i	1
CN(Cc1nc(CCc2ccccc2)no1)Cc1cccs1	.	.	.	98	5	i	1.1
Cc1ccc(/C=N/NC(=O)c2cccc(S(=O)(=O)N3CCOCC3)c2)o1	.	.	.	106	-8	i	1.1
Cc1nc(-c2ccc(S(=O)(=O)N3CCN(C(c4ccccc4)c4ccccc4)CC3)s2)cs1	.	.	.	98	.	i	1.1
COc1ccc(/C=N\NC(=O)CCc2c(C)n[nH]c2C)c(OC)c1OC	0.5	-18	71	96	8	i	1
COC(=O)c1cccc(NC(=O)NC2CCCN2S(=O)(=O)c2ccc(Cl)cc2)c1 (configuration not stated)	-0.6	-3	42	102	-3	i	1
COc1cc([N+](=O)[O-])ccc1NC(=O)NCc1ccco1	.	.	.	103	3	i	1
CC(C)Cc1cc(C(=O)Nc2sc3c(c2C#N)CCC3)no1	-2.3	.	.	101	13	i	0.73
O=C(c1ccco1)N1CCN(C(=O)C(Cc2ccccc2)NS(=O)(=O)c2cccs2)CC1 (configuration not stated)	-1.2	.	.	66	-14	i	0.94
COc1cc2c3c(c1)C1(C(=O)N3C(C)(C)C=C2C)C(C#N)=C(N)Oc2cc(C)oc(=O)c21 (configuration not stated)	-1.8	-12	100	92	2	i	0.97
CCOC(=O)c1nn(-c2ccccc2F)c(C)c1C(C)=O	-2.8	-2	175	95	-5	i	0.99
CC1(C)CC(NC(=O)c2ccccc2Cl)CC(C)(C)N1	-0.8	.	.	101	-13	i	1
CCCC(=O)Nc1ccccc1NC(=O)c1cc(OC)c(OC)c(OC)c1	-0.2	38	126	112	-1	i	0.83
Cc1cc(Nc2cccc(Cl)n2)n(-c2ccccc2)n1	1.1	.	.	87	-1	i	1.1
COc1ccc(OC)c(NC(=O)C2CC(=O)N(c3ccccc3)C2)c1 (configuration not stated)	-1.0	.	.	101	-1	i	1
CC(C)c1nccn1CCC(=O)O	-3.5	6	146	92	-3	i	0.86
O=C1c2ccccc2C(=O)N1c1ncn[nH]1	.	.	.	118	.	i	0.98
Nc1ccccc1SCc1csc(-c2ccc(Cl)cc2)n1	.	.	.	99	.	i	1.1
CNc1ccn(C2CCCO2)c(=O)n1 (configuration not stated)	.	.	.	100	.	i	0.73
COc1ccc(/C=N/NC(=O)c2cc(-c3ccc(C)cc3C)nc3ccccc23)cc1COC(C)=O	-2.0	.	.	104	-9	.	.
CCOC(=O)c1c(C)c(C(=O)N2CCCCCC2)c(C)n1CC	-0.4	-28	106	104	-1	i	0.97
O=C1C2=C(c3ccccc31)[N+](=O)C1CCCCC1N2[O-] (configuration not stated)	-1.7	8	195	94	0	i	0.98
N/C(=N\OC(=O)CCn1cccc(C(F)(F)F)c1=O)c1ccc(OC(F)(F)F)cc1	.	.	.	102	.	i	0.99
COc1ccc(NC(=O)Cn2nnc(C(=O)NCCc3ccc(OC)c(OC)c3)c2N)cc1	-2.3	-2	130	112	1	i	0.82
O=C(O)CC(SCC(=O)Nc1ccc(Br)cc1)C(=O)O (configuration not stated)	.	32	97	99	-7	i	1.1
CC1(C)C2CCC1(C)C(OC(=O)CCn1ccnc1)C2 (configuration not stated)	-1.2	-40	148	116	-2	i	1.2
CCCN(CCO)Cc1ccc(F)c(Br)c1	-1.2	50	137	96	-9	i	1.1

Marked active in RGS16-Gao (from the list above):
SMILES	GALR2 agonist	RGS16-Gao	PKD1 kinase inh	HSV replic up	HSV replic up primary fold
O=C(NCC1CC1)NC(=O)c1c(F)cccc1Cl	.	9.3*	.	i	0.86

Following part.
SMILES	GALR2 agonist	Insulin prom inh	Insulin prom inh cell count	RGS16-Gao	PKD1 kinase inh	HSV replic up	HSV replic up primary fold
Cc1cc(/C=C2/C(=O)NN(c3ccccc3)C2=O)c(C)n1-c1ccc(O)cc1	0.1	28	53	97	-2	i	0.98
O=C(CCCn1cnc([N+](=O)[O-])n1)Nc1ccc(F)c(Cl)c1	.	27	107	105	-2	i	1
Cc1cc(Cl)c(S(=O)(=O)NC(C)C)cc1OCC(N)=O	-1.3	-4	132	106	-12	i	0.9
COc1cc2c(cc1OC)C(C)N(Cc1ccc3c(c1)OCO3)CC2 (configuration not stated)	.	.	.	98	-4	i	0.94
CC(C)n1c(=S)[nH]c2cc(Cl)ccc21	.	.	.	101	.	i	0.92
Cc1ccc(NC(=O)Cc2ccccc2)c(C)c1	.	.	.	101	1	i	1
N#CCSc1ccsc1C(=O)Nc1ccc(F)cc1	-1.1	-18	97	103	2	i	0.94
O=C(N/N=C\c1ccncc1)c1ccccc1O	.	-71	64	115	0	.	.
CC(C)CCNC(=O)NC(=O)COC(=O)CCN=C1NS(=O)(=O)c2ccccc21	.	.	.	102	-4	i	0.81
CC(=O)NNc1cc(C)nc(N)n1	.	.	.	94	.	i	0.96
COc1cccc(N(CC(=O)NCC2CCCO2)C(=O)CNS(=O)(=O)c2ccccc2)c1 (configuration not stated)	.	.	.	100	7	i	0.93
CCc1ccc(NC(=O)CSc2nc(O)cc(=O)n2C2CCCC2)cc1	.	.	.	103	5	i	1.1
c1ccn2cc(-c3ccc4c(c3)OCO4)cc2c1	.	.	.	95	8	i	1.1
CC(OC(=O)CCCSc1nc2ccccc2s1)C(=O)NC(N)=O (configuration not stated)	.	.	.	103	-3	i	0.99
CCN(CC)c1ccc(/C=C2\C(=O)N(c3nnc(C)c(=O)[nH]3)N=C2C)cc1	.	.	.	107	.	i	0.79
CC(C)(C)C1=CC(=O)C(N2CCOCC2)=CC1=O	-0.7	-6	99	95	-4	i	0.99
Cc1ccc(S(=O)(=O)N(C)C)cc1NC(=O)COC(=O)c1n[nH]c(=O)c2ccccc12	.	.	.	100	-6	i	0.98
c1ccc(-c2cn(-c3ccccc3)c3[n+]2CCCS3)cc1	.	.	.	103	.	i	1.2
CCOc1cc(NC(=S)NCCCN(C)C)c(OCC)cc1NC(=O)c1cccs1	0.3	.	.	165	-1	i	0.98
COc1ccc(/C=N/N2CCOCC2)cc1COc1ccc(Cl)cc1	-1.6	-19	84	102	-4	i	0.95
Cn1nnnc1SC(C(=O)Nc1cccc(C(F)(F)F)c1)c1ccccc1 (configuration not stated)	-0.7	7	136	51	2	i	0.97
Cc1nn(-c2ccccc2)c2c1C(c1ccc(O)c(O)c1)N1C(=N2)C(Nc2ccccc2)=Nc2ccccc21 (configuration not stated)	1.7	-8	101	100	11	i	0.87
COc1ccc(CNC(=O)/C=C/c2ccccc2[N+](=O)[O-])cc1	.	.	.	100	-3	i	1
O=C(COC(=O)Cn1cnc2ccccc21)Nc1cccc([N+](=O)[O-])c1	.	.	.	96	-11	i	0.91
O=S(=O)(c1ccccc1)c1cc(O)ccc1O	.	0	100	96	-4	.	.
CNc1ccccc1C(=O)OCC(C)=O	-1.6	-10	72	103	-4	i	1
Cc1nc2ccccn2c1C(=O)NNS(=O)(=O)c1ccc(Cl)cc1	.	.	.	104	.	i	1.1
Cc1sc2ncnc(SCC(=O)N3CCCC3=O)c2c1C	-2.1	.	.	96	4	i	0.86
O=C(OC1CCOC1=O)c1cncc(Br)c1 (configuration not stated)	-1.1	-41	127	106	-6	i	1.1
Cc1cc(C(=O)NNc2c(Cl)cccc2Cl)n(C(C)(C)C)n1	.	.	.	110	.	i	1

In the list so far, 3 have a CF3 group.
SMILES	GALR2 agonist	Insulin prom inh	Insulin prom inh cell count	RGS16-Gao	PKD1 kinase inh	HSV replic up	HSV replic up primary fold
FC(F)(F)c1cc(-c2ccco2)nc(NCCc2ccccc2)n1	-1.5	8	107	106	41	i	1
N/C(=N\OC(=O)CCn1cccc(C(F)(F)F)c1=O)c1ccc(OC(F)(F)F)cc1	.	.	.	102	.	i	0.99
Cn1nnnc1SC(C(=O)Nc1cccc(C(F)(F)F)c1)c1ccccc1 (configuration not stated)	-0.7	7	136	51	2	i	0.97

The listing picks up, repeating the 3 entries before the break.
SMILES	GALR2 agonist	Insulin prom inh	Insulin prom inh cell count	RGS16-Gao	PKD1 kinase inh	HSV replic up	HSV replic up primary fold
Cc1sc2ncnc(SCC(=O)N3CCCC3=O)c2c1C	-2.1	.	.	96	4	i	0.86
O=C(OC1CCOC1=O)c1cncc(Br)c1 (configuration not stated)	-1.1	-41	127	106	-6	i	1.1
Cc1cc(C(=O)NNc2c(Cl)cccc2Cl)n(C(C)(C)C)n1	.	.	.	110	.	i	1
CNC(=S)NNC(=O)CSCc1c(Cl)cccc1Cl	.	.	.	103	.	i	0.99
Cc1ccc(S(=O)(=O)N2CCOCC2)cc1NC(=O)COC(=O)CCC(=O)c1cccs1	-2.9	46	36	102	-5	i	1
Oc1c(Cl)cc(Cl)cc1/C=C/c1ccc2cccc(O)c2n1	.	.	.	96	2	?	.
COc1ccc(C(=O)NNC(=O)Cc2ccc(Cl)cc2)cc1	.	.	.	110	-4	i	1
COc1ccccc1NC(=S)N(Cc1ccco1)Cc1cc2cc(C)cc(C)c2[nH]c1=O	0.6	.	.	73	-5	i	1
C=CCN(CC=C)S(=O)(=O)c1ccc(NC(=S)NC(=O)/C=C/c2ccccc2)cc1	-0.1	-13	155	96	-3	i	0.9
O=C(CCN1C(=O)S/C(=C\c2ccccc2)C1=O)Nc1ccc(S(=O)(=O)Nc2nccs2)cc1	-3.0	16	115	89	-5	.	.
NC(=O)C1CCN(c2ncnc3c2c(-c2ccccc2)cn3-c2ccccc2)CC1	-2.0	.	.	109	4	i	0.67
CCOC(=O)/C(=N/Nc1ccccc1)c1csc(Nc2ccccc2)n1	56*	-8	92	97	3	i	0.67
Cc1nc(C(=O)N(C)C)nn1-c1ccc(Cl)cc1Cl	-0.9	-48	93	100	0	i	0.85
CCc1ccc(NC(=O)Cn2cccc2)cc1	.	-43	80	97	-9	i	1
CCO/C(=C/c1sc2ccc(OC)cc2[n+]1CCCS(=O)(=O)[O-])CC	-2.9	11	76	93	-1	i	1.1
O=C(N/N=C/c1[nH]c2ccccc2c1Cl)c1cccc(Br)c1	.	.	.	100	.	i	0.88
